Bioassay records from PubChem BioAssay.
StopGo RLuc: Primary qHTS Assay for Foot and Mouth Disease Virus Antivirals against NCGC Sytravon and CBC Compound Libraries: Renilla Luciferase Signal; HEK cells with a luciferase reporter of 2A StopGo recoding; Potency, µM (doses to about 57.5 µM), for inactives: at the top dose signal change, negative = less light; 0.32% of 120,000 active; AID 1745857, 2022; active means well fitted falling curve with a large enough effect; inconclusive means small, poorly fitted or top-dose-only effect; inactive means no such curve, though single readings can be large or run the other way; further: nearly all actives have a fitted effect of over 55% in size; overnight with compound
2A firefly: Primary qHTS Assay for Foot and Mouth Disease Virus Antivirals against NCGC Sytravon and CBC Compound Libraries: Firefly Luciferase Signal; HEK cells with a luciferase reporter of 2A StopGo recoding; Potency, µM (top dose mostly 57.5 µM), inactives show at the highest dose signal change, negative = less light; AID 1745856, 2022; 0.23% of 120,000 active; active = well fitted falling curve with a large enough effect; inconclusive = small, poorly fitted or top-dose-only effect; inactive = no such curve, though single readings can be large or run the other way; further: nearly all actives have a fitted effect of over 60% in size; overnight with compound
The depositor's hits bear a star; ? = inconclusive; [ ] = remark or other dose. On the % scale 0 is the no-effect control and ±100 the full control effect; potency means the concentration at half of the fitted maximal effect. Only part of the results is shown (hit frequency here may not be typical).

Below each SMILES: StopGo RLuc, 2A firefly
- CN(CC(=O)Nc1ccc(F)cc1)C(=O)COc1ncnc2scc(-c3ccc(Cl)cc3)c12
→ -10%, -14%
- COc1ccc(Oc2coc3cc(OC(=O)c4cccs4)ccc3c2=O)cc1
→ -6%, 27%
- CC(C)CNc1nc(-c2ccc(Cl)cc2)c(CC(=O)O)s1
→ 20%, 68%[activator]
- CCOC(=O)c1cc(NC(=O)c2cc(Br)cc(C)c2OC)ccc1N1CCOCC1
→ 24%, -16%
- Cc1ccc2c(CNC3CCCCC3)c(C(=O)O)n(Cc3ccc(F)cc3)c2c1
→ -3%, -15%
- CC(=O)Nc1ccc(NC(=O)C(C)OC(=O)c2ccccc2-n2cnnn2)cc1 (centres undefined)
→ 21%, 47%[activator]
- NC(=O)CN1CCC(NC(=O)c2ccc(Oc3ccccc3)cc2)CC1
→ -10%, -3%
- CC1CCCCN1C(C)CNC(=S)NCc1ccc(F)cc1 (centres undefined)
→ 6%, -6%
- O=C(NC1CCCCCC1)c1nc(-c2ccccc2)n(-c2ccccc2)n1
→ 0%, -14%
- Cc1ccc(S(=O)(=O)N2CCCc3cc(NC(=O)c4cccc(Cl)c4)ccc32)cc1
→ -2%, -8%
- CCOC(=O)C1=C(CN(C)Cc2ccccc2)NC(=O)NC1c1ccc(OC(C)C)cc1 (centres undefined)
→ -1%, -20%
- CC(CC(C(N)=O)(c1ccccc1)c1ccccc1)N(C)C (centres undefined)
→ -5%, -14%[11.5 µM]
- NCc1ccc(C(F)(F)F)cc1
→ -2%, 9%
- O=C(O)c1ccccc1Nc1cc(Cl)ccc1C(=O)O
→ -16%[23.8 µM], -22%[27 µM]
- O=C(Nn1cnnc1)c1ccccc1Br
→ -5%, 0%
- Cc1cc(C)n2nc(SCC(=O)Nc3ccccc3C)nc2n1
→ -1%, -3%
- COc1ccc(OCC(=O)N2CCC(c3nc4ccccc4s3)CC2)cc1
→ 25µM*, 28µM*
- CCOC(=O)c1ccc(S(=O)(=O)N2CCC(C(=O)NCCc3ccccn3)CC2)cc1
→ -11%, 1%
- CC1=C(C(=O)Nc2cc(Cl)ccc2C)C(c2sccc2C)n2ncnc2N1 (centres undefined)
→ -21%, 0%
- Cc1cc(N2CCC(C)CC2)n2nc(-c3ccccc3)nc2n1
→ 8%, 21%
- Cc1c(O)ccc2c(COC(=O)Cc3n[nH]c(=O)c4ccccc34)cc(=O)oc12
→ 11%, 18%
- Cc1ncc(CN)c(N)n1
→ 9%, 21%
- CCOC(=O)c1cc(OC(=O)c2cc(OC)c(OC)c(OC)c2)n(-c2ccccc2)n1
→ -12%, 0%
- CCc1ccccc1N(C)S(=O)(=O)c1ccc2[nH]cc(C(=O)NCCOC)c(=O)c2c1
→ -5%, -13%
- Cc1ccc(S(=O)(=O)CC(=O)N2CCN(c3nc4c(F)cccc4s3)CC2)cc1
→ ?, -3%
- Cc1ccccc1NC(=O)c1cc2cc([N+](=O)[O-])ccc2oc1=O
→ -7%, 0%
- O=C(NCc1coc(-c2cccs2)n1)c1ccc(OC(F)F)cc1
→ 14%, 12%
- O=C(Cn1c(=O)n(-c2ccc(Cl)cc2)c(=O)c2sc3ccccc3c21)NC1CCCC1
→ -7%, -12%
- Cc1nnc(SCC(=O)NC(C)C(C)C)s1 (centres undefined)
→ -1%, 3%
- Cn1nc(Oc2nc(N3CCCCC3)nc(N3CCOCC3)n2)ccc1=O
→ 57%[activator], 60%[activator]
- CC(C)Cn1c(-c2ccc(S(=O)(=O)N3CCCC3)cc2)csc1=Nc1ccccc1
→ 7%, -8%
- O=C(CSc1nc(=O)n(Cc2ccccn2)c2c1CCC2)Nc1ccccc1
→ -12%, -11%
- COc1ccc(NC(=O)c2cc(C(C)=O)n3ccccc23)cc1
→ 49%[activator], 116%[activator]
- COc1ccc2c(C)c(CC(=O)Nc3nnc(C)s3)c(=O)oc2c1OC
→ -4%, 6%
- Cc1cc(C)c2c(n1)nn1c(C)c(CCC(=O)Nc3ccc(C)c(Cl)c3)c(C)nc21
→ -7%, 22%
- C=C(C)CC(Nc1ccccc1C)c1ccco1 (centres undefined)
→ -6%, 1%
- O=c1n(Cc2ccc(F)cc2Cl)c2ccccc2c2nc(-c3ccccc3)nn12
→ 8%, -7%
- CCc1ccc(C(=O)COC(=O)C(Cc2c[nH]c3ccccc23)NC(=O)c2ccc(Br)cc2)cc1 (centres undefined)
→ 6%, 0%
- O=C(CCC1CCCO1)NCC1CC1 (centres undefined)
→ 12%, 21%
- CCOc1ccc(NC(=O)C2CCN(S(=O)(=O)c3cc(-c4noc(C)n4)ccc3C)CC2)cc1
→ 5%, 0%
- CCOC(=O)C1CCCN(C(=O)Cn2ncc3c(C)n(Cc4ccccc4Cl)c(C)c3c2=O)C1 (centres undefined)
→ -16%, 25%
- COCCn1c(CCC(=O)Nc2cc(C)cc(C)c2)nc2c1c(=O)[nH]c(=O)n2CC(C)C
→ -10%, -13%
- CO/N=C(\C(=O)O)c1cn2ccsc2n1
→ 12%, 9%
- CCn1cc(C(=O)NCCc2ccc(OC)c(OC)c2)c(=O)c2cc(S(=O)(=O)N(C)C3CCCCC3)ccc21
→ 175%[activator], -29%
- O=C(N(Cc1cccs1)c1cccc(C(F)(F)F)c1)C12CC3CC(CC(C3)C1)C2
→ -25%, -5%
- O=C(Nc1ccc2c(c1)N(C1CCCC1)C(=O)c1ccccc1S2)c1ccc(F)cc1
→ ?, -28%
- Cc1cc(C)c(S(=O)(=O)NCCO)c(C)c1
→ 32%[activator], 0%
- COc1ccc(CCNC(=O)CCCn2c(=O)c3cccn3c3ccc(F)cc32)cc1OC
→ 2%, -2%
- CCC/C=N/NC(=O)CCCC(=O)N/N=C/CCC
→ -11%, 25%
- COc1ccc(OC)c(/C=C/c2nc3ccccc3[nH]c2=O)c1
→ 35%, 53%
- CCCCN1C(=O)NC(c2ccccc2OC(F)F)C(C(=O)OCC)=C1C (centres undefined)
→ -1%, -18%
- O=C(CCc1nc(-c2ccccc2F)no1)Nc1cccc(C(F)(F)F)c1
→ -7%, -4%
- Cc1cccc(CN2CCC(CNc3ncnc4onc(-c5ccc(Cl)cc5)c34)CC2)c1
→ -5%, 4%
- COc1ccccc1NC(=O)CSc1nc(-c2ccccc2F)nc2cc(=O)[nH]n12
→ -14%, -5%
- CN(CC(=O)NC(=O)NCC(F)(F)F)CC(F)(F)F
→ 4%, -1%
- O=C(NCCN1CCN(C(=O)c2ccc(Cl)cc2)CC1)c1ccc(Cl)cc1
→ ?, ?
- Cc1cccc(NC(=O)C2(C#N)C(c3ccccc3)C2(C)C(=O)c2ccc(Cl)cc2)c1 (centres undefined)
→ 28%, 25%
- CC(NC(=O)COc1ccc(Cl)c(Cl)c1)c1ccccc1 (centres undefined)
→ -4%, -10%
- CCOC(=O)C1=C(O)c2ccccc2C(=O)/C1=C\c1ccc(CC)cc1
→ ?, ?
- CCC(C)C(NC(=O)c1ccc(C(C)C)cc1)C(=O)O (centres undefined)
→ 3%, 6%

Gathered by group, the entries above with an aryl thioether with sulfur outside any ring
Below each SMILES: StopGo RLuc, 2A firefly
- Cc1cc(C)n2nc(SCC(=O)Nc3ccccc3C)nc2n1
→ -1%, -3%
- Cc1nnc(SCC(=O)NC(C)C(C)C)s1 (centres undefined)
→ -1%, 3%
- O=C(CSc1nc(=O)n(Cc2ccccn2)c2c1CCC2)Nc1ccccc1
→ -12%, -11%
- COc1ccccc1NC(=O)CSc1nc(-c2ccccc2F)nc2cc(=O)[nH]n12
→ -14%, -5%

(listing goes on)
Below each SMILES: StopGo RLuc, 2A firefly
- Cc1ccc(NC(=O)c2cc3cc(Cl)ccc3oc2=O)cc1
→ 8%, 63%[activator]
- CCc1ccc(OCC(=O)NCc2nc(-c3cccc(C)c3)no2)c(Br)c1
→ -6%, 12%
- O=C(NCCC(=O)N1CCCC(C(F)(F)F)C1)c1ccc(Br)cc1 (centres undefined)
→ -1%, -3%
- Cc1ccccc1OCC(=O)Nc1ccc(-c2nc3ccccc3o2)cc1
→ 1%, 29%
- CC(=O)Nc1nonc1-c1nnc(SCC(=O)Nc2ccc(F)cc2F)n1-c1ccccc1
→ 1%, -10%
- S=C(NCc1ccccc1)NC1CCCC1
→ 193%[activator], 37%[activator]
- CCOc1ccc(-n2nnnc2CNS(=O)(=O)CC)cc1
→ 0%, 8%
- O=C(Nc1ccc(-c2cnc(C3CC3)o2)cc1)c1ccc(F)cc1
→ -4%, 0%
- CCC1CCc2c(sc(N)c2C#N)C1 (centres undefined)
→ 6%, 0%
- CCN(CC)C(=O)C1CCN(C(=O)Cn2ccc3ccc(Cl)cc32)CC1
→ 16%, 9%
- COc1ccc(-c2noc(CCC(=O)Nc3ccn(C)n3)n2)cc1
→ 3%, 0%
- Cc1cc(NC(=O)C2CCCN(S(=O)(=O)c3ccc(Br)s3)C2)ccc1Br (centres undefined)
→ -15%, 13%
- CC(C)CCNC(=S)NN
→ 30%, 0%
- Cc1nc2cc(NC(=O)COc3ccc(C(C)C)c(C)c3)ccc2o1
→ 8%, 35%[activator]
- O=C(CSc1nc2c(c(=O)[nH]1)CCC2)Nc1ccccc1C(F)(F)F
→ -17%, -10%
- O=C(NCCc1ccc(F)cc1)C1CCCC1
→ 9%, 0%
- COc1ccc(Br)cc1/C=C/C(=O)Oc1ccc(C2CCCCC2)cc1
→ 4%, 9%
- Cc1nc2sc(C#N)c(N)c2c(C)c1CC(=O)c1ccccc1
→ 19%, 22%
- CCOc1ccc(CNC(=O)CCCn2nc(C)c3c(C)n(-c4ccc(C)cc4)nc3c2=O)cc1
→ -9%, -14%
- O=C(CCCSc1nc2ccccc2s1)Nc1ccc(F)c(F)c1F
→ -11%[1.06 µM], 23%

(next part)
| SMILES | StopGo RLuc | 2A firefly |
| --- | --- | --- |
| CC(C)c1nnc(NC(=O)c2nn(-c3cccc(Cl)c3)ccc2=O)s1 | 4% | 21% |
| c1cn2c(NC3CCCCC3)c(-c3ccc(N4CCOCC4)cc3)nc2cn1 | -2% | 57%[activator] |
| O=C(Nc1ccc2c(c1)OCCO2)c1cccn(Cc2cccc(F)c2)c1=O | 50%[activator] | 83%[activator] |
| Cc1cc(OCC(=O)Nc2ncn[nH]2)ccc1Cl | -11% | 61%[activator] |
| O=C(O)CCOc1ccccc1-c1ccccc1 | 17% | 19% |
| COc1ccc(-n2ncc(C(=O)NCCc3ccsc3)c2C2CCN(C(=O)OC(C)(C)C)CC2)cc1 | 8% | -10% |
| Cc1ccccc1Nc1nc(N)nc(COc2ccccc2C(=O)NCc2ccccc2)n1 | ? | ? |
| CC1CCc2c(sc3nnn(CCCCOc4ccc(Cl)cc4)c(=O)c23)C1 (centres undefined) | -10% | -17% |
| COc1cccc(C(=O)NC(=O)Nc2ccc(-n3nc(C(F)(F)F)cc3C(F)(F)F)cc2)c1 | -4% | 2% |
| COc1cc(C(=O)NCC2COc3ccccc3O2)cc(OC)c1C (centres undefined) | 5% | 15% |

4 entries from above, with each value named:
O=C(O)CCOc1ccccc1-c1ccccc1
  StopGo RLuc = 17%
  2A firefly = 19%

COc1ccc(-n2ncc(C(=O)NCCc3ccsc3)c2C2CCN(C(=O)OC(C)(C)C)CC2)cc1
  StopGo RLuc = 8%
  2A firefly = -10%

Cc1ccccc1Nc1nc(N)nc(COc2ccccc2C(=O)NCc2ccccc2)n1
  StopGo RLuc = ?
  2A firefly = ?

CC1CCc2c(sc3nnn(CCCCOc4ccc(Cl)cc4)c(=O)c23)C1 (centres undefined)
  StopGo RLuc = -10%
  2A firefly = -17%

Carrying on.
| SMILES | StopGo RLuc | 2A firefly |
| --- | --- | --- |
| c1ccc(Nc2nc(CSc3nnc4n3CCCCC4)cs2)cc1 | 13% | 0% |
| O=C(Cc1ccc2c(c1)CCC2)Nc1ccc(-c2nccs2)cc1 | 33%[activator] | 0% |
| O=S(=O)(c1ccc(Sc2nnnn2C2CC2)nc1)N1CCOCC1 | -13% | -2% |
| COc1ccc(/C=C/C(=O)Oc2ccccc2C)cc1 | 1% | 0% |
| COc1ccc(CN(CCCC#N)C2CC2)cc1 | 0% | 0% |
| Cc1cccc(NC(=O)CN2c3ccccc3S(=O)(=O)c3ccccc32)c1C | 42%[activator] | -5% |
| Cc1cc(Cl)ccc1-n1c(CCC(=O)O)ccc1-c1cccs1 | -4% | 9% |
| Cc1ccc(NC(=O)CC2(C(=O)O)CCCC2)c(C)c1 | 20% | 0% |
| Cc1cc(SSc2nc(C)cc(C)n2)nc(C)n1 | 6% | 7% |
| CCN(Cc1cccs1)C(=O)NCC(c1ccco1)N(C)C (centres undefined) | -6% | -1% |
| COc1cccc(Nc2sc(C(=O)c3ccc(F)cc3)c(N)c2C(=O)NCc2ccc(C)cc2)c1 | -8% | -56% |
| O=C(Cc1ccccc1)Nc1c(NCC2CCCCC2)c2ccccc2oc1=O | 24% | -2% |
| CN1CCc2nc3sc(C(=O)Nc4c(F)cccc4F)c(N)c3cc2C1 | -4% | 112%[activator] |
| N=C(N)c1ccc(OCCCCCOc2ccc(C(=N)N)cc2)cc1 | ? | -31% |
| N/C(=C\C(=O)C(F)(F)F)c1ccc(Cl)cc1 | -5% | 0% |
| Cc1c(Cl)cccc1NS(=O)(=O)c1ccc2[nH]cc(C(=O)NC3CCCC3)c(=O)c2c1 | 131%[activator] | 1% |
| Cc1ccc(C(=O)NCCn2c(C)cc3ccccc32)cc1[N+](=O)[O-] | -3% | 10% |
| Cc1cccc(C(=O)N(Cc2nc(-c3ccc(Cl)cc3)no2)C(C)C)c1 | ? | -16% |
| O=C(COC(=O)COc1ccc(Br)cc1)Nc1ncc(C(F)(F)F)cc1Cl | -14% | -3% |
| CCOc1ccc(OCC)c(NS(=O)(=O)c2ccc3c(c2)CCCN3C(C)=O)c1 | 142%[activator] | -16% |
| CCCCn1c(NCc2cc(Br)ccc2O)nc2ccccc21 | 27% | -11% |
